Sfp PPTase inh: Sfp phosphopantetheinyl transferase inhibition; Q9F4F7; AID 1490; Biochemical Sfp PPTase activity, qHTS; 310,000 compounds, 3.5% hits; Potency, µM, for the others: max response, negative = inhibition, actives largely listed as inhibitors; active = well fitted inhibition curve with a large enough effect; inconclusive = small, poorly fitted or top-dose-only effect, or another doubt; inactive = no such curve, though single readings can be large or run the other way;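 note: the enzyme is Sfp with the accession as filed and its product quenches rhodamine fluorescence; potency is the fitted concentration of half-maximal effect; 0% = enzyme reaction without inhibitor and -100% = no enzyme wells; top concentration of the series not given in the record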
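Fluorescence-quenching assay with 15 nM Sfp, 5 uM rhodamine-CoA and 12.5 uM BHQ-2-labelled ybbR peptide in pH 7.6 Hepes/MgCl2 buffer. Enzyme was pre-incubated with compound for 15 min at room temperature. Rate was taken from the 30-min fluorescence change (525/598 nm).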
gsp antagonist: antagonists of gsp mutant (McCune-Albright syndrome) | gsp-mutant cells, cAMP HTRF, 30 min; control for the full effect not named in the record | Potency, µM (doses to about 76.9 µM), for inactives: at the top dose activity change, negative = inhibition, usual class: inhibitors | AID 624288 | 340,000 compounds, 0.4% hits; active = falling curve of any shape with a large fitted effect; inconclusive = falling curve, mostly with a smaller effect; inactive = flat or rising curve; cell line not stated here;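 note: intracellular cAMP measured with PDE inhibitor Ro 20-1724 present during compound exposure; potency is the fitted concentration of half-maximal effect; % is set by controls: 0 for no effect and ±100 for the full control effect; nearly all actives have a fitted effect of over 65% in size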
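HTRF cAMP read-out (cAMP-d2 plus anti-cAMP antibody-K in lysis buffer, 30 min RT). Before lysis, cells are exposed to compounds with […] for 30 min at 37C in DPBS containing Ca/Mg, BSA and Tween 20.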
TRPV1 PAM: potentiators of human vanilloid receptor 1 (TRPV1); Q8NER1; TRPV1-expressing cells, Fluo-8 calcium influx, capsaicin EC20 potentiation; host cell line not named in the record; control for the full effect not named in the record; potentiation, % at 8.33 µM; 320,000 compounds, 0.02% hits; AID 540277; active means potentiation above 80%; inconclusive means 30% to 80%; inactive means below 30%; note: 0% is about no effect
Target sequence (Q8NER1 whole entry, looked up): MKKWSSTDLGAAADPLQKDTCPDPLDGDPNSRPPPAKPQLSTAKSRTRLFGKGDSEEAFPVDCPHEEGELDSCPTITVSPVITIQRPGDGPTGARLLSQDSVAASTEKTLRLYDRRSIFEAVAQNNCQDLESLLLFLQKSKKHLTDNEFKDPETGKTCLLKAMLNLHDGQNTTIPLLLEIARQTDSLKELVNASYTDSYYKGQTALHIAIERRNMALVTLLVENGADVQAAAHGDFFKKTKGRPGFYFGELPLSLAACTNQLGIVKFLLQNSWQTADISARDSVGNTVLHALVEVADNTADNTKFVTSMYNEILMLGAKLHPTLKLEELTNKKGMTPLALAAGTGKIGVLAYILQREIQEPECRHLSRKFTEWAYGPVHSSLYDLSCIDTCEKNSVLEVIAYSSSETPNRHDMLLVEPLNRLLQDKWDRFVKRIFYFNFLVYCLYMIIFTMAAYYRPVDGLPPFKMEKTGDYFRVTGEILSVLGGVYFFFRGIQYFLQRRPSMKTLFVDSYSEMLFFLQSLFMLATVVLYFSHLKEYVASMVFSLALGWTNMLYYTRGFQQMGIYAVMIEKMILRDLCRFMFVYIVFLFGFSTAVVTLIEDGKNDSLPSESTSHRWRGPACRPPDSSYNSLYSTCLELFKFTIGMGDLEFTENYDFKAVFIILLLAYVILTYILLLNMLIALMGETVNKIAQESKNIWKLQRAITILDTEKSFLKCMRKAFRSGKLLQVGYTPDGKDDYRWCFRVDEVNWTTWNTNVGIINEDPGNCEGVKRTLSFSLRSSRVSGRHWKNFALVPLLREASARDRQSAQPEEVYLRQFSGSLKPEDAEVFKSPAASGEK
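TRPV1-expressing cells were cultured overnight at 35.5C and loaded with Fluo-8 calcium dye for 40 to 90 min at room temperature. After a 10 s baseline, compound was added and calcium influx was read kinetically for 3 min (ex 480/em 520 nm).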
D2 PAM: positive allosteric modulators of human D2 dopamine receptor; AID 624464; 360,000 compounds, 0.23% hits; potentiation, % (concentration not given with the values); DiscoveRx D2 beta-arrestin cells, luminescence, 90 min; 100% = 57 uM dopamine signal; P14416; active = potentiation of 50% or more; inconclusive = 30% to 50%; inactive = 30% or less;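 note: tested on top of an EC20 dose of dopamine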
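PathHunter D2 cells, attached overnight at 37 deg C, received compound in DMSO plus dopamine at EC20 (50 nM final) for 90 min at 37 deg C. Beta-arrestin recruitment was read as luminescence after 1 h with detection reagent at ambient temperature.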
Menin-MLL FL inh: displaces fluorescein MLL peptide from human menin; Fluorescence polarization, fluorescein-MLL peptide displacement from menin; FP activity change, % at 61.4 µM; 290,000 tested, under 10 active; inconclusive = falling polarisation curve, or a change in total fluorescence; inactive = total fluorescence flat and polarisation flat or rising; no compound was filed as active; the % refers to the polarisation; negative = inhibition;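 note: % of control where 0% means no effect; inhibitors lower the polarisation; unlabelled MLL peptide was the positive control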
ClpP mod: qHTS Assay for Activators of ClpP. ATP-dependent Clp protease proteolytic subunit (Bacillus subtilis (strain 168)), P80244. purified B. subtilis ClpP, FRET peptide cleavage, 20 min. Potency, µM (series often up to 57.5 µM), inactives show at the highest dose activity change, negative = active. 340,000 compounds, 1.9% hits. AID 651965, 2013; active = well fitted falling curve with a large enough effect; inconclusive = small, poorly fitted or top-dose-only effect; inactive = no such curve, though single readings can be large or run the other way; note: potency is the fitted concentration of half-maximal effect; the source files actives as falling curves though it sought activators and does not explain the sign; nearly all actives have a fitted effect of over 65% in size; many hits overshoot -100%
Target sequence (P80244 whole entry, looked up): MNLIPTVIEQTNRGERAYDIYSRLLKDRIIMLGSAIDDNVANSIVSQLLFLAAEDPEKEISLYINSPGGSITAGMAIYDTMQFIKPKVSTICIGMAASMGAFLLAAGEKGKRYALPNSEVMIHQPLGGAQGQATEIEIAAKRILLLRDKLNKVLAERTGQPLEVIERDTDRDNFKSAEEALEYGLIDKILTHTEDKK
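Buffer: 100 mM Tris/HCl pH8, 100 mM KCl, 0.05% low protease BSA, 2.5% glycerol, 0.01% Tween-20. ClpP 10 microg/mL final; 20 min RT; delta FRET normalized to ADEP and DMSO controls.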
gsp ag: agonists of gsp mutant (McCune-Albright syndrome) | gsp mutant cells, cAMP HTRF, 30 min; control for the full effect not named in the record | Potency, µM (doses to about 76.9 µM), for inactives: at the top dose activation (cAMP increase), hits mostly activators | 340,000 compounds, 0.13% hits | AID 624287; active = well fitted activation curve with a large enough effect; inconclusive = small, poorly fitted or top-dose-only effect, or another doubt; inactive = no such curve, though single readings can be large or run the other way; cell line not stated here;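 note: phosphodiesterase inhibitor Ro 20-1724 added with compounds to block cAMP breakdown; potency is the fitted concentration of half-maximal effect; nearly all actives have a fitted effect of over 60% in size; about a fifth of the inactives were tested at one dose only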
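Cells in DMEM/10% FBS with G418 were pretreated with compounds in DMSO plus […] (300 uM stock) for 30 min at 37C. cAMP was measured by HTRF (cAMP-d2 plus anti-cAMP antibody-K) after 30 min at room temperature.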
Starred values were filed as active, the others as inactive; ? = inconclusive; . = no result given; [ ] = remark or other dose.

SMILES	Sfp PPTase inh	gsp antagonist	TRPV1 PAM	D2 PAM	Menin-MLL FL inh	ClpP mod	gsp ag
COc1ccc(S(=O)(=O)N2CCN(Cc3cccs3)CC2)cc1OC	.	13%	.	4	.	-6.1%	-3%[15.4 µM]
COc1cc(/C=C2\CCCc3c2nc2ccccc2c3C(=O)O)cc(OC)c1O	11µM*	-2%	13	-4	0.1	-1.0%	16%
COc1ccc(-c2cc(N)n(S(=O)(=O)c3ccc(C)cc3)n2)c(OC)c1	13%	-9%	13	-5	-1.5	-1.4%	10%
O=C(O)/C=C/c1ccc(S(=O)(=O)N2CCCCCC2)cc1	21%	1%	0	-3	3.0	.	19%
CC(=O)Nc1nnc(/C=C/c2cccc([N+](=O)[O-])c2)s1	9%	9%	21	-24	0.6	-3.3%	-7%[15.4 µM]
Cc1cc(=O)[nH]c(SCC(=O)Nc2ccccc2C)n1	-3%	-3%	-1	-3	-1.4	.	15%
O=C(CN1C(=O)c2cccc3cccc(c23)C1=O)N1CCN(c2ccccn2)CC1	13%	5%	19	-5	2.3	.	1%[15.4 µM]
Cc1ccc(S(=O)(=O)N2CCOCC2)cc1C(=O)Nc1cc(Cl)ccc1N1CCOCC1	.	27%	0	-6	.	2.9%	-17%
CCOC(=O)CN1CC23C=CC(O2)C(C(=O)Nc2ccc(OC)cc2OC)C3C1=O (stereo not given)	-15%	5%	7	0	4.0	-0.6%	?
CCN1C(=O)c2cccc3c(Cl)ccc1c23	-3%	8%	6	-2	3.2	-2.9%	27%
CCOc1cccc(OCCOCCN(C)Cc2ccccc2)c1	6%	10%	-7	-30	-0.1	0.5%	3%
COc1ccc2cc(CCNC(=O)c3c(-c4ccccc4Cl)noc3C)c(=O)[nH]c2c1	1%	-15%	10	-2	2.7	-2.6%	-48%[inhibitor]
CC(NCc1cccn1C)c1ccccc1 (stereo not given)	-12%	3%	-5	1	0.4	-1.1%	4%
O=C1CN(C(=O)COc2ccc(Cl)c(Cl)c2)c2ccccc2N1	.	-16%	-1	-11	.	2.1%	15%[15.4 µM]
CC(C)c1ccc(NC2CCCN(C(=O)c3cscn3)C2)cc1 (stereo not given)	7%	3%	-24	-12	.	-1.1%	-5%
O=C(NCCc1ccc2c(c1)OCCO2)c1cc(F)cc(F)c1	-2%	-15%	-12	-5	1.0	0.4%	-1%[15.4 µM]
COCCN(C(=O)CSc1nnc(-c2ccccc2F)o1)c1c(N)n(Cc2ccccc2)c(=O)[nH]c1=O	.	.	.	6	.	-0.5%	?
COc1ccc(C)cc1NC(=O)CN(C)C1CCCCC1	14%	0%	-27	-14	3.8	.	-13%[15.4 µM]
CCc1ccc2[nH]c(O)c(N=Nc3nc(-c4ccccc4)cs3)c2c1	-15%	1%	5	-10	-0.3	-2.4%	25%
COc1ccccc1NC(=S)N(Cc1ccco1)Cc1cc2cc(C)ccc2[nH]c1=O	23%	-29%	-8	-8	0.9	2.0%	-1%[15.4 µM]
Clc1ccc(-c2noc(CN(Cc3ccccn3)CC3CCCO3)n2)cc1 (stereo not given)	?	8%	-17	-5	-3.7	.	-9%[15.4 µM]
O=C(Nc1nc2c(s1)CCCC2)C1CCCN1C(=O)c1cccs1 (stereo not given)	-2%	5%	13	4	0.2	-1.2%	17%
CCCN1CCN(S(=O)(=O)c2cn(C)nc2C)CC1	6%	6%	-4	4	?	0.0%	-1%
O=C(CSc1nncs1)NCCNC(=O)CSc1nncs1	.	11%	3	0	.	.	6%[15.4 µM]
COc1cc(OC)c2c(-c3cccc(-c4cccc(N)c4)c3)cc(=O)oc2c1	1%	2%	.	-2	-1.4	-1.2%	.

Compound profiles, as listed above:
Shown for COc1ccc(S(=O)(=O)N2CCN(Cc3cccs3)CC2)cc1OC → Sfp PPTase inh: .; gsp antagonist: 13%; TRPV1 PAM: .; D2 PAM: 4; Menin-MLL FL inh: .; ClpP mod: -6.1%; gsp ag: -3%[15.4 µM]
Shown for CCc1ccc2[nH]c(O)c(N=Nc3nc(-c4ccccc4)cs3)c2c1 → Sfp PPTase inh: -15%; gsp antagonist: 1%; TRPV1 PAM: 5; D2 PAM: -10; Menin-MLL FL inh: -0.3; ClpP mod: -2.4%; gsp ag: 25%

More results follow.
SMILES	Sfp PPTase inh	gsp antagonist	TRPV1 PAM	D2 PAM	Menin-MLL FL inh	ClpP mod	gsp ag
N#Cc1ccc(C(c2nnnn2CCc2ccccc2)N2CCCCCC2)cc1 (stereo not given)	12%	-13%	-4	-6	1.9	-0.9%	0%
COc1ccc(-n2nc(C)cc2Nc2ccccc2C(=O)O)cc1	26%	-1%	8	5	9.7	-0.3%	-26%
O=C1CC(N2CCN(C(c3ccccc3)c3ccccc3)CC2)C(=O)N1 (stereo not given)	4%	-4%	-2	-5	-1.5	1.3%	9%
O=C(COC(=O)c1ccc([N+](=O)[O-])o1)NC1CCS(=O)(=O)C1 (stereo not given)	-1%	9%	-7	?	-1.7	1.0%	2%
CC[C@H](C)[C@H](NC(=O)OCc1ccccc1)C(=O)OCC(=O)Nc1ccc(N2CCOCC2)cc1	.	-9%	-3	8	.	?	-2%
O=C(NCCC1=CCCCC1)c1cc(S(=O)(=O)N2CCOCC2)ccc1Cl	.	2%	-6	-21	.	.	-27%[15.4 µM]
COC(=O)CSc1nnc(NC(=O)c2ccc3c(c2)OCO3)s1	-7%	1%	22	-8	0.5	-3.7%	0%
Cn1ccnc1SCC(=O)Nc1ccc2c(c1)COC2=O	8%	-5%	21	3	5.3	-7.3%	?
COc1cc(C2C3=C(CCCC3=O)Nc3ccc4ncccc4c32)ccc1O (stereo not given)	5%	.	4	-6	-1.0	.	-17%[15.4 µM]
CCc1ccc2[nH]c(=O)c(CN(CCCN3CCOCC3)C(=O)Nc3ccc(F)cc3)cc2c1	-8%	-5%	-10	-24	0.0	-6.4%	30%
COc1ccc(CC(=O)N/N=C(\C)CC(=O)Nc2ccc3c(c2)OCCO3)cc1	12%	-4%	-13	-5	-4.5	-0.2%	0%[15.4 µM]
C/C(NC1CCCCC1)=C(/C#N)C(=O)NCCN1CCOCC1	10%	3%	-2	-4	2.0	-0.4%	-33%[inhibitor]
Fc1cccc(F)c1/C=N/NC(=S)Nc1cccnc1	-5%	2%	-7	-14	1.9	.	-8%[15.4 µM]
CCCCC(=O)Nc1cnc(NC(=O)c2ccco2)cc1C	9%	4%	-7	0	-0.7	.	-15%[15.4 µM]
CN(C)CCCNC(=O)CCc1nc2ccccc2c(=O)[nH]1	19%	2%	-1	-21	1.7	-3.8%	?
Cc1c(C(=O)N/N=C/c2ccncc2)nnn1-c1nonc1N	.	7%	-12	-16	.	.	14%[15.4 µM]
COc1ccc2nc(C)cc(SCC(=O)Nc3c(C)cccc3C)c2c1	-23%	4%	3	-5	5.6	-9.4%	6%
COc1cc(C(=O)Nc2nnc(SC)s2)c([N+](=O)[O-])cc1OC	-8%	1%	5	-5	-5.1	-0.9%	-4%
O=S(=O)(c1cccs1)N1CCN(CC(O)COc2cccc(Br)c2)CC1 (stereo not given)	-26%	?	-5	8	0.4	-2.9%	?
O=C(NCC(c1cccs1)N1CCOCC1)c1ccc(OCc2ccccc2)cc1 (stereo not given)	.	-11%	11	-2	.	-1.7%	1%
O=C(Oc1cccc(OC(=O)c2ccco2)c1)c1ccco1	16%	5%	-5	6	0.0	-2.9%	1%
Cc1ccc(N(CC(=O)NC2CCCCCC2)S(=O)(=O)c2c(C)nn(C)c2C)cc1	22%	-2%	0	-2	-0.4	-1.7%	7%
O=C1CC(Sc2cccs2)C(=O)N1c1ccccc1 (stereo not given)	-29%	13%	7	-7	1.9	.	-2%[15.4 µM]
CCN(CC(=O)NCc1cccs1)C(=O)c1cccc(S(=O)(=O)N2CC(C)OC(C)C2)c1 (stereo not given)	.	-12%	.	-3	.	1.5%	-7%
C[C@@H]1CN([C@@H](C)CO)C(=O)c2cc(Br)cnc2O[C@H]1CN(C)C(=O)Cc1cccnc1	.	.	.	-4	.	-1.9%	43%

Limited to ClpP mod, gsp ag and Menin-MLL FL inh (two entries from above):
| Compound | ClpP mod | gsp ag | Menin-MLL FL inh |
| --- | --- | --- | --- |
| Cc1c(C(=O)N/N=C/c2ccncc2)nnn1-c1nonc1N | . | 14%[15.4 µM] | . |
| N#Cc1ccc(C(c2nnnn2CCc2ccccc2)N2CCCCCC2)cc1 (stereo not given) | -0.9% | 0% | 1.9 |

(listing goes on)
SMILES	Sfp PPTase inh	gsp antagonist	TRPV1 PAM	D2 PAM	Menin-MLL FL inh	ClpP mod	gsp ag
O=C(c1ccc(F)cc1)c1cccc(C(=O)c2ccc(F)cc2)n1	.	-11%	.	-20	.	1.2%	?
CC1=CC(=O)C(Sc2ccc(C)cc2)=CC1=O	.	.	.	-34	.	-2.0%	27%
COc1ccc(C(=O)Nc2ccc(N3CCN(C)CC3)cc2)cc1	7%	1%	4	-26	-4.1	-1.5%	-28%
CC(NC(=O)c1cccc(F)c1)C(c1cccs1)N1CCN(C)CC1 (stereo not given)	17%	-4%	2	-7	3.3	1.1%	-7%
O=S(=O)(c1ccc(Cl)c(Cl)c1)c1snnc1-c1ccccc1	-2%	14%	-3	-10	2.0	1.2%	-3%
CC(C)N(C(=O)COC(=O)c1ccc(Cl)c(S(N)(=O)=O)c1)C(C)C	5%	-2%	12	-1	-0.1	.	8%[15.4 µM]
COc1ccc(C(C(=O)NCc2ccccc2)N(Cc2ccco2)C(=O)c2snc(C(N)=O)c2N)cc1 (stereo not given)	4%	-25%	5	17	.	.	6%[15.4 µM]
O=C(CCN1C(=O)/C(=C/c2ccc(F)cc2)SC1=S)NCCc1ccc(O)cc1	10%	-4%	7	3	.	1.4%	?
Cc1cc2ncn(/N=C/c3ccc([N+](=O)[O-])s3)c2cc1C	-29%	-11%	1	71*	1.9	-19%	6%
COC(=O)N/N=C(\C)c1ccccc1OC(F)F	-1%	12%	7	16	3.1	-0.9%	9%
Cc1noc(C)c1NC(=O)Nc1cccc2c1O[C@H](CN(C)S(C)(=O)=O)[C@@H](C)CN([C@H](C)CO)C2=O	.	10%	.	-2	.	2.4%	-33%[inhibitor]
